Compound activity deposited in PubChem by National Center for Advancing Translational Sciences (NCATS).
miR-21 reporter: miR-21 reporter, rising signal | HeLa miR-21 FLuc reporter, luciferase, 48 h | Potency, µM (series often up to 38.3 µM), for inactives: top-dose reporter change, positive = more light | 340,000 tested, under 10 active; active = well fitted rising curve with a large enough effect; inconclusive = small, poorly fitted or top-dose-only effect; inactive = no such curve, though single readings can be large or run the other way;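 also: % of control where 0% means no effect; miR-21 action dims this reporter so a rising signal means less miR-21 action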
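HeLa cells endogenously expressing miR-21, stably carrying CMV-driven firefly luciferase with a downstream miR-21 binding site, 2000 cells/well. Titrations up to approximately 40 uM, 48 hours; luciferase luminescence read.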
GLA inh pH 4.5: blocks human alpha-galactosidase A at pH 4.5. P06280. purified enzyme, 4-MU-alpha-Gal fluorescence, pH 4.5. activity change, negative = inhibition, % at 105 µM. 230,000 tested, under 10 active. AID 1467; inconclusive = small, poorly fitted or top-dose-only inhibition, or a rising curve; inactive = flat fitted curve, though single readings scatter; no compound was filed as active;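 also: 0% = full activity with enzyme and -100% = basal without enzyme; dose as in the result columns while the protocol names 77 µM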
Target sequence (P06280 whole entry, looked up): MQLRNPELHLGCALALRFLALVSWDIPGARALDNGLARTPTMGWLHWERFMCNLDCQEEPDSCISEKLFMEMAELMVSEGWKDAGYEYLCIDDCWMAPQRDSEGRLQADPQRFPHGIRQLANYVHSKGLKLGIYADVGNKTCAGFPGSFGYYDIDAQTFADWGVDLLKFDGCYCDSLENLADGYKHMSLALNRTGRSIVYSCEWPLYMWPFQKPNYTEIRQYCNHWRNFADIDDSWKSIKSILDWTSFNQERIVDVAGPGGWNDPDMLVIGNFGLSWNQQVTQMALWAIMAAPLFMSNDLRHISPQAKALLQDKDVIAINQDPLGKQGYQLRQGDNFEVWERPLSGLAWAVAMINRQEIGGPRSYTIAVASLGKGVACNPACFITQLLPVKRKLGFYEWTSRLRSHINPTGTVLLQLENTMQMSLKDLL
* marks the source's active call; other numbers are inactive results; ? = inconclusive; . = no result given; & = joins results of further samples. The list is partial (hit frequency here may not be typical).

[1] C[C@@H](C(=O)O)c1ccc(C(=O)c2cccs2)cc1
  miR-21 reporter: . | GLA inh pH 4.5: -2
[2] C=C1c2cccc(O)c2C(O)=C2C(=O)[C@]3(O)C(O)=C(C(N)=O)C(=O)C(N(C)C)C3C(O)C12 (stereo partly drawn)
  miR-21 reporter: . | GLA inh pH 4.5: 1
[3] OC[C@@H](O)CN1CCN(c2ccccc2)CC1
  miR-21 reporter: . | GLA inh pH 4.5: 4
[4] CN=C(NC#N)Nc1ccc(C2=NNC(=O)C[C@@H]2C)cc1
  miR-21 reporter: . | GLA inh pH 4.5: 7
[5] CCCCC(=O)O[C@@]1(C(=O)CO)C(C)CC2C3CCC4=CC(=O)C=C[C@@]4(C)[C@]3(F)C(O)C[C@]21C (stereo partly drawn)
  miR-21 reporter: . | GLA inh pH 4.5: -16
[6] CCOC(N)=O
  miR-21 reporter: . | GLA inh pH 4.5: -1
[7] CNC1C(O)C2OC3OC(C)CC(=O)[C@@]3(O)O[C@H]2[C@H](NC)C1O (stereo partly drawn)
  miR-21 reporter: . | GLA inh pH 4.5: -5
[8] CN1CCO[C@H](c2ccccc2)c2ccccc2C1
  miR-21 reporter: . | GLA inh pH 4.5: 5
[9] CCCCCCCCCCCCCCC[C@H](O)[C@@H](N)CO
  miR-21 reporter: . | GLA inh pH 4.5: 1
[10] COc1cc(N)c(Cl)cc1C(=O)N[C@H]1CCN(CCCOc2ccc(F)cc2)C[C@@H]1OC
  miR-21 reporter: . | GLA inh pH 4.5: -19
[11] CC(=O)O[C@]1(C(C)=O)CC[C@@H]2[C@@H]3C=C(Cl)C4=CC(=O)[C@H]5C[C@@H]5[C@]4(C)[C@H]3CC[C@]21C
  miR-21 reporter: . | GLA inh pH 4.5: -2
[12] CC(=O)OCC(=O)[C@@]1(O)CC[C@@H]2[C@H]3CCC4=CC(=O)C=C[C@]4(C)[C@]3(F)[C@@H](O)C[C@@]21C
  miR-21 reporter: . | GLA inh pH 4.5: 5
[13] C#C[C@@]1(O)CC[C@@H]2[C@@H]3CCC4=CC(=O)CC[C@@H]4[C@H]3CC[C@]21CC
  miR-21 reporter: . | GLA inh pH 4.5: 3
[14] CC1CC2C3CCC4=CC(=O)C=C[C@]4(C)[C@@]3(Cl)C(O)C[C@]2(C)C1(OC(=O)c1ccco1)C(=O)CCl (stereo partly drawn)
  miR-21 reporter: . | GLA inh pH 4.5: 7
[15] COc1nccc(-c2c(-c3ccc(F)cc3)ncn2C2CCC(O)CC2)n1 (stereo not drawn)
  miR-21 reporter: . | GLA inh pH 4.5: -8
[16] CC[C@H](NC(C)C)[C@H](O)c1ccc(O)c2[nH]c(=O)ccc12
  miR-21 reporter: . | GLA inh pH 4.5: -10
[17] C[C@H](N[C@@H](C)COc1ccccc1)[C@H](O)c1ccc(O)cc1
  miR-21 reporter: . | GLA inh pH 4.5: 4
[18] O=C(c1ccccc1)c1ccc2n1CC[C@H]2C(=O)O
  miR-21 reporter: . | GLA inh pH 4.5: -8
[19] COc1c(O)cc2c(c1O)C1OC(CO)C(O)[C@H](O)[C@H]1OC2=O (stereo partly drawn)
  miR-21 reporter: . | GLA inh pH 4.5: -1
[20] C1CCC(C(C[C@@H]2CCCCN2)C2CCCCC2)CC1
  miR-21 reporter: . | GLA inh pH 4.5: 2
[21] CN[C@H]1[C@@H](O)[C@@H](NC)[C@@H]2O[C@@]3(O)C(=O)C[C@@H](C)O[C@H]3O[C@H]2[C@H]1O
  miR-21 reporter: . | GLA inh pH 4.5: 3
[22] Oc1ccc(/C=C\c2cc(O)cc(O)c2)cc1
  miR-21 reporter: . | GLA inh pH 4.5: -1&6
[23] O=C(CSc1nc2ccccc2n1Cc1cccc(Cl)c1)N1CCN(c2ccc(F)cc2)CC1
  miR-21 reporter: -7% | GLA inh pH 4.5: .
[24] COc1ccc(-c2cn3cccnc3n2)cc1NC(=O)c1cc(C)cc(C)c1
  miR-21 reporter: 0% | GLA inh pH 4.5: .
[25] COc1ccc(Cn2c(SCc3ccc(C(=O)NC4CCCC4)cc3)nc3ccncc32)cc1
  miR-21 reporter: 15% | GLA inh pH 4.5: .

In another format: two of the compounds above.
entry	Structure	miR-21 reporter	GLA inh pH 4.5
19	COc1c(O)cc2c(c1O)C1OC(CO)C(O)[C@H](O)[C@H]1OC2=O (stereo partly drawn)	.	-1
15	COc1nccc(-c2c(-c3ccc(F)cc3)ncn2C2CCC(O)CC2)n1 (stereo not drawn)	.	-8

The listing picks up, starting 3 compounds before the break.
[23] O=C(CSc1nc2ccccc2n1Cc1cccc(Cl)c1)N1CCN(c2ccc(F)cc2)CC1
  miR-21 reporter: -7% | GLA inh pH 4.5: .
[24] COc1ccc(-c2cn3cccnc3n2)cc1NC(=O)c1cc(C)cc(C)c1
  miR-21 reporter: 0% | GLA inh pH 4.5: .
[25] COc1ccc(Cn2c(SCc3ccc(C(=O)NC4CCCC4)cc3)nc3ccncc32)cc1
  miR-21 reporter: 15% | GLA inh pH 4.5: .
[26] CCCCn1cnc2cc(NCc3ccccc3Cl)ccc21
  miR-21 reporter: 0% | GLA inh pH 4.5: .
[27] CC(O)CNC(=O)C(=O)Nc1c2c(nn1-c1ccc(Cl)cc1)CSC2 (stereo not drawn)
  miR-21 reporter: -2% | GLA inh pH 4.5: .
[28] COc1ccc(CC(=O)Nc2c(C(=O)N3CCN(c4ccccc4F)CC3)oc3ccccc23)cc1OC
  miR-21 reporter: 28% | GLA inh pH 4.5: .
[29] Cc1nc2c(-c3ccccc3)c(C)[nH]n2c(=O)c1Cc1ccc(Br)cc1
  miR-21 reporter: ? | GLA inh pH 4.5: .
[30] Cc1cccc(N2CCN(C(=O)CCC(=O)NNc3nc4ccccc4c4nc(C)nn34)CC2C)c1 (stereo not drawn)
  miR-21 reporter: 18% | GLA inh pH 4.5: .
[31] O=C(CCCCCn1c(=O)c2sccc2n(CC(=O)Nc2cccc(Cl)c2)c1=O)NCc1ccc2c(c1)OCO2
  miR-21 reporter: 2% | GLA inh pH 4.5: .
[32] O=C(Cn1c(=O)n(Cc2ccco2)c(=O)c2oc3ccccc3c21)Nc1ccccc1
  miR-21 reporter: 5% | GLA inh pH 4.5: .
[33] COCCn1c(SCC(=O)Nc2ccc(F)c(Cl)c2)nc2c(oc3ccccc32)c1=O
  miR-21 reporter: -14% | GLA inh pH 4.5: .
[34] COc1cc(C(c2c(C)[nH][nH]c2=O)c2c(C)[nH][nH]c2=O)ccc1OC(=O)c1cccc(C)c1
  miR-21 reporter: 1% | GLA inh pH 4.5: .
[35] COc1ccc(-n2nc3c(N4CCCC(C(=O)NCc5ccccc5C)C4)nnc(C)c3c2C)cc1 (stereo not drawn)
  miR-21 reporter: 25% | GLA inh pH 4.5: .

Some of the entries so far, with the structure last.
entry	miR-21 reporter	GLA inh pH 4.5	Molecule
32	5%	.	O=C(Cn1c(=O)n(Cc2ccco2)c(=O)c2oc3ccccc3c21)Nc1ccccc1
34	1%	.	COc1cc(C(c2c(C)[nH][nH]c2=O)c2c(C)[nH][nH]c2=O)ccc1OC(=O)c1cccc(C)c1
31	2%	.	O=C(CCCCCn1c(=O)c2sccc2n(CC(=O)Nc2cccc(Cl)c2)c1=O)NCc1ccc2c(c1)OCO2
